# Mtb MenB inh – M. tuberculosis MenB inhibitors, primary screen, biochemical, absorbance; MenB enzyme assay, absorbance read-out; some hits fall short of the stated cut; inhibition, %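 (about 12 µg/mL by stock and volumes)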; 0.43% of 100,000 active; AID 540299, 2011;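 active means mean of two replicates above 30%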;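 further: 0% = no compound and 100% = wells with inactive enzyme; the first replicate is given; strong numbers were not always called active; inactives centre near -10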
# Mtb MbtI inh – MbtI salicylate synthase inhibitors, primary screen, biochemical, fluorescence intensity | 0.89% of 100,000 active | inhibition, %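 (about 17 µg/mL by stock and volumes)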 | P9WFX0 | AID 493033, 2011 | purified MbtI enzyme, fluorescence intensity read-out;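 active means above 50% in both replicates, above 80% if mildly self-fluorescent; inactive means the rest, strongly fluorescent compounds included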;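 further: 0% = mean of negative and 100% = mean of positive controls; one replicate is shown; some compounds called inactive have numbers as strong as hits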
# Target sequence (P9WFX0 whole entry, looked up): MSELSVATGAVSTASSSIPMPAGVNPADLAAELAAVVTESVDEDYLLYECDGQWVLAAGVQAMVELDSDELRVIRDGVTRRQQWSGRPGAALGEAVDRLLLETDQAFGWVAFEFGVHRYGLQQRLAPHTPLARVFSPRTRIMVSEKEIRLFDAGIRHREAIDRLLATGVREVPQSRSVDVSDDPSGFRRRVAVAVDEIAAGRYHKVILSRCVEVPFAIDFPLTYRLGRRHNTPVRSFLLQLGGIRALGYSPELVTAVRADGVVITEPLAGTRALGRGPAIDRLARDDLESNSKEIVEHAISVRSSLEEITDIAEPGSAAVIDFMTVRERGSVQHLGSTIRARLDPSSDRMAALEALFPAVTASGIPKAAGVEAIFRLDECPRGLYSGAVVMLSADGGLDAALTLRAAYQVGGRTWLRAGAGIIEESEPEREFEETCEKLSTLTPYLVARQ
# Polio RdRp inh – poliovirus RdRp elongation inhibitors, primary screen, biochemical, fluorescence polarization, total intensity. Genome polyprotein (Poliovirus type 1 (strain Mahoney)), P03300. poliovirus polymerase elongation; stronger effect = lower value. % elongation, % (compound at 16.7 µg/mL). 0.66% of 150,000 active; in the data active means % elongation below about 90%; further: some results filed as inactive read as strong as hits
# Target sequence (P03300 1749-2209 limits assumed): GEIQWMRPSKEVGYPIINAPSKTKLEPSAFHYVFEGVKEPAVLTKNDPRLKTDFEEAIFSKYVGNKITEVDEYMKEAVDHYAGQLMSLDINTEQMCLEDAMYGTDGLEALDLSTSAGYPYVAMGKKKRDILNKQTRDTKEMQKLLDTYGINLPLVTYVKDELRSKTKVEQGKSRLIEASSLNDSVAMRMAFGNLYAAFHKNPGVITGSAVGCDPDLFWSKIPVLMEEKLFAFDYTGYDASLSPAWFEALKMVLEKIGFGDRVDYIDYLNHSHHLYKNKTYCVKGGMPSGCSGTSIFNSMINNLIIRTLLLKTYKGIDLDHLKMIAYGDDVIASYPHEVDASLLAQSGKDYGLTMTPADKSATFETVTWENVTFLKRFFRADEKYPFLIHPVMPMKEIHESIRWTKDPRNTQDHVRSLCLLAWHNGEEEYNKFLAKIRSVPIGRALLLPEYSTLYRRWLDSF
# Polio RdRp inh intensity – second read-out of Polio RdRp inh, no call of its own (marks repeat the call); % elongation; measured here: total intensity read-out; formula for this scale not given here;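 total fluorescence in place of polarization; lower means less elongation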
# Numbers without * were called inactive; nt = no result given; & = joins results of further samples. Rows are unselected; overall some 1.7% were active at least once.
entry	molecule	Mtb MenB inh	Mtb MbtI inh
1	COC(=O)c1ccc2c(c1)sc(=NC(=O)c1ccc(S(=O)(=O)N3CCCC3)cc1)n2C	-14	18
2	CC(C)CCNc1nc2c(c(=O)[nH]c(=O)n2C)n1C(C)C	-18	3
3	CCNC(=O)/C=C/c1ccc(C(C)(C)C)cc1	-18	18
4	Cc1ccc2nc(NC(=O)C(Cc3ccccc3)NC(=O)OCc3ccccc3)sc2c1 (configuration not stated)	-25	nt
5	O=C(COCC(=O)Nc1nc(-c2ccncc2)cs1)Nc1nc(-c2ccncc2)cs1	-49	25
6	COc1ccc(CCNC(=O)CSc2nc3ccccc3nc2N2CCCC2)cc1OC	-52	-2
7	NNC(=O)CSc1nc2ccccc2o1	15	5
8	COc1ccc(/C=C/C(=O)NCCN=C2NS(=O)(=O)c3ccccc32)cc1	4	19
9	CCc1nc2c(cnn2-c2ccccc2)c2nncn12	nt	-8
10	Cn1c(=O)c2c(nc(S(C)(=O)=O)n2C)n(C)c1=O	11	5

entry	Polio RdRp inh	Polio RdRp inh intensity
1	102	101
2	99	102
3	102	101
4	104	113
5	101	101
6	100	98
7	99	103
8	102	104
9	103	95
10	99	100

# Further compounds.
entry	molecule	Mtb MenB inh	Mtb MbtI inh
11	CN(C)S(=O)(=O)c1ccc(C(=O)N=c2sc3cc(S(C)(=O)=O)ccc3n2C)cc1	-20	-4
12	C=CCN(CC=C)Cn1nc(-c2c[nH]c3ccccc23)oc1=S	-33	4
13	O=C(Cn1c(-c2cscn2)nc2ccccc21)OCCOc1ccc(Br)cc1	11	-5
14	O=C(CC(c1ccc(F)cc1)N1Cc2ccccc2C1=O)NCc1ccco1 (configuration not stated)	-20	-25
15	Cc1ccc(C2C(Cc3ccccc3)N3C=Cc4ccccc4C3C2(C#N)C(N)=O)c(C)c1 (configuration not stated)	-9	nt
16	O=C(CSc1nccc(=O)[nH]1)NN(c1ccccc1)c1ccccc1	-24	-8
17	O=C(O)CCSc1nc2ccccc2[nH]1	5	-7
18	O=C(Nc1ccccc1)O/N=C1\CCc2ccccc21	-43	1
19	CCCOC(=O)c1cc(=O)[nH]c2ccccc12	0&-18	6&5
20	CC(C)CCN1C(=O)c2ccccc2C1C(=O)NCc1cccnc1 (configuration not stated)	1	-1

entry	Polio RdRp inh	Polio RdRp inh intensity
11	104	107
12	103	100
13	102	108
14	103	101
15	110	131
16	104	100
17	99	103
18	100	101
19	102&104	102&107
20	101	96

# The results go on.
entry	molecule	Mtb MenB inh	Mtb MbtI inh
21	c1ccc2c(CN3CCSCC3)c[nH]c2c1	30	4
22	CCCN1C(=O)c2ccccc2NC1c1cccc(O)c1O (configuration not stated)	-19	103
23	COc1ccc(/C=C/C(=O)NNc2nc(C)cc(=O)[nH]2)cc1	-37	3
24	O=C(Nc1ccccc1C(=O)N1CCN(c2ccc(F)cc2)CC1)C1=CSCCO1	-19	-14
25	COC(=O)C1=C(C)N(c2ccccc2)/C(=C/c2cccs2)C1=O	-7	-5
26	Cc1noc(C)c1NC(=O)Nc1cccc(-n2cccc2)c1	-6	1
27	COc1ccc(C2=NCC(CSc3nc4cc(Cl)ccc4o3)S2)cc1 (configuration not stated)	7	1
28	COC(=O)C1=C(C)N(c2ccc(OC)cc2)C(C)=C(C(=O)OC)C1c1ccccc1	-19	-2
29	Cc1ccc2[nH]cc(CCNC(=O)c3ccccc3)c2c1	-7	-2
30	O=C(O)CCC(=O)N1CCc2ccccc21	2	nt

entry	Polio RdRp inh	Polio RdRp inh intensity
21	99	106
22	108	114
23	92	95
24	102	103
25	103	107
26	104	106
27	102	105
28	104	107
29	103	98
30	101	110

# The listing continues.
entry	molecule	Mtb MenB inh	Mtb MbtI inh
31	O=C(O)c1cccnc1SC1CC(=O)N(Cc2ccccc2)C1=O (configuration not stated)	-18	-3
32	Cc1cc(NC(C)c2ccccc2)cc(=O)n1Cc1ccco1 (configuration not stated)	-23	-4
33	CCc1nc(C)cn1S(=O)(=O)c1ccc2c(c1)OCCO2	-33	-6
34	CCSC1=NCCN1C(=O)c1ccc(S(=O)(=O)N(C)C)cc1	-38	-3
35	CCCC(=O)Nc1ccc(-c2nc3cc(C(C)C)ccc3o2)cc1	-5	31
36	CC(=O)N(Cc1c(C#N)c2ccccc2n1C)c1ccccc1	-3	-3
37	CNC(=O)C(C)n1ccc2cc(S(=O)(=O)N3CCCC3)ccc21 (configuration not stated)	1	-18
38	CCSC1=N/C(=C\c2cccnc2)C(=O)N1c1ccccc1	-18	-137
39	CCc1ccc(NC(=O)N(Cc2ccco2)C2CCN(C(C)=O)CC2)cc1	-2	-9
40	C=CCN=C1NN(c2ccc3c(c2)OCCO3)C(C(=O)Nc2ccccc2)=C(C)S1	-19	nt

entry	Polio RdRp inh	Polio RdRp inh intensity
31	105	110
32	107	98
33	98	98
34	102	104
35	101	107
36	100	99
37	102	103
38	102	106
39	101	102
40	103	106

# Of the compounds above, these contain a halogen:
entry	molecule	Mtb MenB inh	Mtb MbtI inh
13	O=C(Cn1c(-c2cscn2)nc2ccccc21)OCCOc1ccc(Br)cc1	11	-5
14	O=C(CC(c1ccc(F)cc1)N1Cc2ccccc2C1=O)NCc1ccco1 (configuration not stated)	-20	-25
24	O=C(Nc1ccccc1C(=O)N1CCN(c2ccc(F)cc2)CC1)C1=CSCCO1	-19	-14
27	COc1ccc(C2=NCC(CSc3nc4cc(Cl)ccc4o3)S2)cc1 (configuration not stated)	7	1

entry	Polio RdRp inh	Polio RdRp inh intensity
13	102	108
14	103	101
24	102	103
27	102	105

# Next section.
entry	molecule	Mtb MenB inh	Mtb MbtI inh
41	O=C(CNCCO)N1N=C(c2cccs2)CC1c1cccs1 (configuration not stated)	-10	38
42	Cc1cccc(CN2CCN(C(=O)COc3ccccc3)CC2)c1	9	-4
43	CN(C)CC(C)(C)CNc1ccc(S(=O)(=O)N2CCCC2)cn1	-42	5
44	O=C(NC(=S)NNc1nc2ccccc2s1)c1ccco1	-85	1
45	CCc1cccc2cc(CN)c(=O)[nH]c12	-22	64
46	CCCc1nc2c([nH]1)C(c1cccc(O)c1)C(C#N)=C(N)O2 (configuration not stated)	-17	nt
47	Cc1ccc(N(CC#N)C(=O)Nc2ccc(Cl)cc2)cc1	-3	-7
48	O=C(NC(=S)NNc1ncccc1-n1cccc1)c1ccccc1	-105	12
49	CSc1sc(SC)c(C[n+]2ccccc2)c1C[n+]1ccccc1	-21	nt
50	O=C(CN1C(=O)CS/C1=C\c1nc2ccccc2s1)c1cc2ccccc2o1	-100	-12

entry	Polio RdRp inh	Polio RdRp inh intensity
41	102	103
42	99	102
43	102	97
44	103	106
45	101	104
46	104	105
47	106	106
48	106	112
49	107	105
50	117	131

# Exported field by field: 2 of the compounds above.
41: O=C(CNCCO)N1N=C(c2cccs2)CC1c1cccs1 (configuration not stated)
  Mtb MenB inh = -10; Mtb MbtI inh = 38; Polio RdRp inh = 102; Polio RdRp inh intensity = 103

48: O=C(NC(=S)NNc1ncccc1-n1cccc1)c1ccccc1
  Mtb MenB inh = -105; Mtb MbtI inh = 12; Polio RdRp inh = 106; Polio RdRp inh intensity = 112

# Exported with values under each structure: entries from further up.
# Values run as follows: Mtb MenB inh | Mtb MbtI inh | Polio RdRp inh | Polio RdRp inh intensity
46	CCCc1nc2c([nH]1)C(c1cccc(O)c1)C(C#N)=C(N)O2 (configuration not stated)
    -17 | nt | 104 | 105
45	CCc1cccc2cc(CN)c(=O)[nH]c12
    -22 | 64 | 101 | 104

# Later entries.
entry	molecule	Mtb MenB inh	Mtb MbtI inh
51	Cc1ccc(N(C(=O)C(F)(F)F)C(C(=O)NC2CCCC2)c2cccs2)cc1F (configuration not stated)	-34	nt
52	CC1=C(C#N)C(c2ccccc2C(F)(F)F)C2=C(CCCC2=O)N1 (configuration not stated)	-7	8
53	CCN=C1S/C(=C\c2ccc(-c3cccc(C(=O)O)c3)o2)C(=O)N1CC	-33	-1
54	Cc1cc(NC(=O)NN2CCOCC2)nn1-c1c(Cl)cccc1Cl	1	-8
55	COC(=O)c1sccc1-c1ccc(/C(C)=N/NC(N)=O)o1	1	-5
56	COc1ccc2[nH]c3nc(=S)[nH]nc3c2c1	-22	3
57	Cc1nc(COC(=O)c2cccc(S(=O)(=O)N3CCc4ccccc43)c2)cs1	-12	5
58	Nc1cc(N2CCCCC2)nc(N)[n+]1OS(=O)(=O)[O-]	-5	-10
59	Cc1ccccc1C(C(=O)Nc1ccc(F)cc1)N(Cc1ccco1)C(=O)Cn1nnc2ccccc21 (configuration not stated)	2	10
60	Cc1ccc(Oc2ccc3c(c2)C(=O)N(CC2CCCO2)C3=O)cc1 (configuration not stated)	-36	151

entry	Polio RdRp inh	Polio RdRp inh intensity
51	100	99
52	100	102
53	104	104
54	101	106
55	104	108
56	103	100
57	101	100
58	102&99	104&103
59	101	104
60	101	101

# The list continues:
entry	molecule	Mtb MenB inh	Mtb MbtI inh
61	CN(C)c1ccc(C=Nc2ccc3[nH]c(=O)[nH]c3c2)cc1	-15	nt
62	CC[N+]1(CC)Cc2cc3ccccc3cc2C1	-8	11
63	N#CCOC(=O)c1ccccc1C(=O)c1cccs1	-7	-3
64	COC(=O)c1cn(-c2ccccc2)nc1-c1ccccc1	nt	-11
65	CC1(C)CC(NC(=O)c2ccc3c(c2)OCO3)CC(C)(C)N1	-22	nt
66	CCN(CC)c1cc(-c2cccs2)nc(SCC(=O)c2cccs2)c1C#N	-5	nt
67	O=C(Oc1c(-c2ccco2)oc2ccccc2c1=O)c1cccs1	4	-7
68	O=c1c2c3c(sc2n2cnnc2n1CCc1ccccc1)CCCC3	-2	-6
69	CC(OC(=O)C1CCN(C(=O)Nc2ccccc2)CC1)C(=O)Nc1ncc(Cl)cc1Cl (configuration not stated)	-19	3
70	CN(C)/C=C/C=C1\CCCC1=O	-163	4

entry	Polio RdRp inh	Polio RdRp inh intensity
61	103	110
62	102	104
63	104	108
64	102	99
65	106	101
66	77*	84*
67	99	103
68	100	101
69	104	106
70	93	94

# The results go on:
entry	molecule	Mtb MenB inh	Mtb MbtI inh
71	CC(C)(C)c1ccc(OCC(=O)N2CCN(c3ccc(O)cc3)CC2)cc1	nt	-7
72	CC1(C)CC(=O)C2=C(C1)N(CC(=O)O)C1=C(C(=O)CC(C)(C)C1)C2c1ccccc1	-226	34
73	Cc1c(Cl)cccc1NC(=O)NCC(C)C	8	-14
74	COc1cccc(NC(=O)Cc2noc3ccc(C)cc23)c1	7	-15
75	O=c1ccc(-c2ccc(S(=O)(=O)Nc3ccccc3)o2)n[nH]1	-4	2
76	CCC(=O)Nc1c2c(nn1-c1ccc(C)cc1C)CSC2	-19	-8
77	COc1cc(OC)cc(C(=O)N[C@H](C(=O)NCc2ccco2)C(C)C)c1	2	0
78	O=C1/C(=C/c2cccc(Br)c2)SC(=S)N1CC(=O)N1CCCc2ccccc21	-8	10
79	O=S(=O)(c1cccc2nsnc12)N1CCOCC1	24	-1
80	NS(=O)(=O)c1ccc(CC(=O)O)cc1	14	-4

entry	Polio RdRp inh	Polio RdRp inh intensity
71	104	106
72	100	103
73	102	102
74	100	101
75	100	103
76	101	101
77	101	107
78	99	102
79	101	103
80	102	103

# The listing continues:
entry	molecule	Mtb MenB inh	Mtb MbtI inh
81	COc1cc(CN2CC(C)CC(C)C2)cc(I)c1O (configuration not stated)	11	-4
82	CN(C)c1ccc(C(CNC(=O)NC2CCCCC2)N2CCc3ccccc32)cc1 (configuration not stated)	0	7
83	CCN(CC)S(=O)(=O)c1c(C)nn(S(=O)(=O)c2ccccc2)c1C	-6	2
84	Fc1cccc(F)c1C=Nc1cccnc1Cl	nt	-8
85	CCc1ccccc1Nc1nc(N)nc(CO/C(=C(\C#N)c2nnc3n2CCCCC3)C(F)(F)F)n1	-13	-10
86	c1ccc2sc(-c3ccc(CNCCCn4ccnc4)o3)nc2c1	-32	89
87	CN(C(=O)CSc1nnnn1C)C1CCCCC1	-7	-5
88	CCOC(=O)c1cc(NC(=O)Nc2cc(C)ccc2C)c(C)nc1C	-47	-10
89	COCCn1c(=NC(=O)c2ccccc2)sc2cc(OC)ccc21	-16	21
90	CS(=O)(=O)N1CCCC(C(=O)NCc2cccnc2)C1 (configuration not stated)	-32	-18

entry	Polio RdRp inh	Polio RdRp inh intensity
81	101	104
82	101	102
83	105	106
84	104	110
85	104	108
86	91	95
87	101	99
88	104	103
89	101	107
90	106	99

# Later entries.
entry	molecule	Mtb MenB inh	Mtb MbtI inh
91	CCN1C(=O)/C(=C2\SC(N3CCCCC3)=NC2=O)c2ccccc21	-10	-5
92	CSC(=C(C#N)C#N)N1CCN(c2ccccc2)CC1	-13	-1
93	CC1=NN(c2ccccc2)C(=O)/C1=C\c1cn(CCC(=O)O)nc1-c1cc2ccccc2o1	1	10
94	CCOc1cnc(C(=O)NN=C(N)N)o1	-19	16
95	CC(OC(=O)COc1cccc(C(F)(F)F)c1)C(N)=O (configuration not stated)	-2	3
96	CC(C)Cn1c(=O)c2ccccc2n2c(CCC(=O)NCCCN3CCN(c4ccccc4F)CC3)nnc12	12	0
97	O=C(Nc1c(C(=O)c2ccccc2)oc2ccccc12)c1ccc(Cl)cc1	-22	7
98	O=C(O)C(O)C(O)c1nc2ccccc2s1 (configuration not stated)	-21	16
99	CC(C)(C)c1cn2cccc(OCc3ccc(Cl)c(Cl)c3)c2n1	-20	-11
100	Cc1ccc2nc(SCC(=O)N(c3ccccc3)C(C)C)[nH]c2c1	2	8

entry	Polio RdRp inh	Polio RdRp inh intensity
91	103	102
92	106	108
93	99	95
94	101	102
95	97	99
96	102	104
97	105	106
98	104	108
99	100	105
100	100	103
